# Lassa entry inh – Lassa virus entry inhibition; Potency, µM (titrated, usually from 37.9 µM), without a hit: top-dose activity change, negative = inhibition, hits mostly inhibitors; 300,000 tested, 1.2% active; Lassa virus pseudotype entry inhibition, cell reporter; control for the full effect not named in the record; AID 540256; active means well fitted inhibition curve with a large enough effect; inconclusive means small, poorly fitted or top-dose-only effect, or effect the other way; inactive means flat fitted curve, though single readings scatter; tested in HEK293 cells; note: % is set by controls: 0 for no effect and ±100 for the full control effect; nearly all actives have a fitted effect of over 50% in size; luciferase read-out
# SARS PLpro yeast – blocks SARS-CoV papain-like protease in a yeast assay; S. cerevisiae expressing SARS-CoV PLpro, growth rescue; control for the full effect not named in the record; Potency, µM (titrated, usually from 32.9 µM), inactives show at the top dose activity, positive = growth rescue; AID 485353; 330,000 tested, 0.19% active; active means well fitted rising curve with a large enough effect; inconclusive means small, poorly fitted or top-dose-only effect; inactive means no such curve, though single readings can be large or run the other way; note: 0% is about no effect; nearly all actives have a fitted effect of over 55% in size; growth read by luminescence after 48 h
# StopGo reporter – FMDV 2A StopGo reporter, luciferase signal | 410,000 tested, 1.2% active | human cells with a luciferase reporter of 2A StopGo recoding; control for the full effect not named in the record | Potency, µM (series often up to 57.9 µM), for inactives: top-dose signal change, negative = less light; active = well fitted falling curve with a large enough effect; inconclusive = small, poorly fitted or top-dose-only effect; inactive = no such curve, though single readings can be large or run the other way; tested in HEK293T cells; note: % is set by controls: 0 for no effect and ±100 for the full control effect; nearly all actives have a fitted effect of over 45% in size; luciferase light after 4 h
# RE007 growth inh – less growth of the S. pombe RE007 Vpr strain; S. pombe RE007 Vpr strain, BacTiter-Glo ATP luminescence, 24 h; control for the full effect not named in the record; Potency, µM (highest dose often 92.2 µM), for the others: at the highest dose activity change, negative = less growth; 360,000 tested, 0.21% active; active = well fitted falling curve with a large enough effect; inconclusive = small, poorly fitted or top-dose-only effect; inactive = no such curve, though single readings can be large or run the other way;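 note: % is set by controls: 0 for no effect and ±100 for the full control effect; nearly all actives have a fitted effect of over 50% in size; the assay follows cell death caused by Vpr and the record does not say whether a fall means rescue or toxicity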
#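 Fission yeast RE007 carrying one integrated HIV-1 vpr copy, seeded at OD 0.01 in PMG+AL medium with 23 nL pinned compound. Grown 24 h at 30 degrees; viability read by BacTiter-Glo luminescence after 5 min.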
# Cruzain Triton – blocks cruzain activity in presence of Triton detergent | AID 1478 | P25779 | Potency, µM, without a hit: max response, negative = inhibition, usual class: inhibitors | 200,000 tested, 0.43% active | purified cruzain, Z-FR-AMC fluorescence, 0.01% Triton;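 note: plate controls were neutral wells for no effect and buffer without enzyme for full effect; nearly all actives have a fitted effect of over 40% in size; top concentration of the series not given in the record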
# Target sequence (P25779 123-467 limits assumed): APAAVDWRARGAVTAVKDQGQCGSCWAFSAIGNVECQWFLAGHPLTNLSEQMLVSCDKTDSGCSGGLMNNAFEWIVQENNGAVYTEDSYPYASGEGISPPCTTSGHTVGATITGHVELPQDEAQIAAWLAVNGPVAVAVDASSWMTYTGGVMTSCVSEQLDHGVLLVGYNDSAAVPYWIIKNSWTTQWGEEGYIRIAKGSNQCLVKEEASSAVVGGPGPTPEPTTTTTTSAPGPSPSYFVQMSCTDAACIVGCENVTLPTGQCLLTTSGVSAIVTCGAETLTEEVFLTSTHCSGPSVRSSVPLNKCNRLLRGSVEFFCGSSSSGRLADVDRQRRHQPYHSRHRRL
#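 Read-out: AMC fluorescence (360 nm excitation, 450 nm emission), four reads over 2 min, first-to-third difference used. Conditions: cruzain 1.5 nM, Z-FR-AMC 2 uM, pH 5.5 acetate, 5 mM DTT, 0.01% Triton X-100.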
# NS1 inh – influenza NS1 inhibition; S. cerevisiae slowed by influenza A NS1, growth recovery by OD600; Potency, µM (titrated, usually from 46.1 µM), inactives show top-dose activity, positive = more growth; 270,000 tested, 0.4% active; AID 2326; active means well fitted rising curve with a large enough effect; inconclusive means small, poorly fitted or top-dose-only effect; inactive means no such curve, though single readings can be large or run the other way; note: nearly all actives have a fitted effect of over 50% in size
#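 Read-out: OD600 growth recovery of NS1-expressing budding yeast. Cells grown overnight at 30C in -URA glucose medium, washed, resuspended and diluted 1:100 in 2% galactose assay medium, pH 6.0. Same strain lacking NS1 served as positive control.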
# Cruzain noTriton – cruzain (T. cruzi) inhibition without detergent; P25779; purified cruzain, Z-FR-AMC fluorescence, no detergent; Potency, µM, for the others: max response, negative = inhibition, most hits filed as inhibitors; 200,000 tested, 2.3% active; AID 1476;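 note: plate controls were enzyme without inhibitor for no effect and buffer without enzyme for full effect; nearly all actives have a fitted effect of over 40% in size; top concentration of the series not given in the record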
#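 Detergent-free condition (0.00005% Triton X-100) in acetate buffer pH 5.5 with DTT. 1.5 nM enzyme and compound were pre-mixed 15 min, then 2 uM Z-FR-AMC substrate added; reaction progress from fluorescence change between first and third reads (60 s).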
# Marburg entry inh – blocks Marburg virus binding to or entry into cells; Marburg virus pseudotyped entry inhibition, cell reporter; control for the full effect not named in the record; about a third of the inactives were read at about 46 µM; Potency, µM (highest dose often 37.8 µM), inactives show top-dose activity change, negative = inhibition, usual class: inhibitors; 300,000 tested, 1.8% active; active = well fitted inhibition curve with a large enough effect; inconclusive = small, poorly fitted or top-dose-only effect, or effect the other way; inactive = flat fitted curve, though single readings scatter; tested in HEK293 cells; about a fifth of its hits are not listed in these tables; note: % is set by controls: 0 for no effect and ±100 for the full control effect; luciferase read-out
# The depositor's hits bear a star; ? = inconclusive; · = no result given; [ ] = another dose, or the depositor's remark. Unless noted, calls come from the whole dose curve; as a rule, active = well fitted curve in the direction sought with a large enough effect; inconclusive = small, poorly fitted or top-dose-only effect, or another doubt; inactive = no such curve, though single readings can be large; an effect the other way counts as inactive or inconclusive. Potency is the fitted concentration of half-maximal effect.
structure	Lassa entry inh	SARS PLpro yeast	StopGo reporter	RE007 growth inh	Cruzain Triton	NS1 inh	Cruzain noTriton	Marburg entry inh
Cc1ccccc1Cn1ccc(=NCc2ccccc2)cc1	11.1%	6.5%	1.2%	-15.9%	-1.2%	-2.3%	-1.9%	12.2%[46.1 µM]
CC(C)Cc1cc(CN2CCC(CO)(Cc3ccccc3)CC2)[nH]n1	·	-1.1%	-15.6%	-4.3%	·	-0.4%	·	·
CC1NC(=O)NC1CCCCCC(=O)Nc1ccc(F)c(Cl)c1 (centres undefined)	9.7%	-4.7%	-27.7%	-23.1%	·	·	·	3.2%[46.1 µM]
CCN(CC)CCCN1C(=O)C(O)=C(C(=O)c2sc(C)nc2C)C1c1ccco1 (centres undefined)	16.7%[14.3 µM]	-5.6%	-16.4%	4.5%	-2.7%	0.0%	-4.7%	0.9%
Clc1ccc(/C=N/Nc2nn[nH]n2)cc1	1.7%	-3.7%	29.1%	-6.8%	-5.5%	-3.4%	-8.1%	-9.4%
Cc1ccc2nc(/C(C#N)=C\c3ccc(Oc4ccc([N+](=O)[O-])cn4)cc3)[nH]c2c1	-14.4%	-1.7%	-28.5%	-1.6%	-0.6%	-3.3%	10µM*	-22.1%
COC(=O)c1sccc1NC(=O)Nc1ccc(OC)c(OC)c1	·	1.2%	84.7%[activator]	-19.8%	·	-6.1%	·	·
COC(=O)C1(C)Nc2ccccc2C(=O)N1c1ccccc1C (centres undefined)	·	-0.8%	-19.5%	4.5%	-4.7%	13.6%	-1.6%	·
Cc1ccc(NC(=O)c2ccc(Br)o2)cc1S(=O)(=O)N(C)C	?	2.1%	3.7%	-18.4%	·	·	·	?
Cc1ccc(NC(=O)CNNC(=O)c2cccc([N+](=O)[O-])c2)cc1[N+](=O)[O-]	10.7%[46.1 µM]	27.9%	-14.5%	1.6%	·	·	·	-0.6%[46.1 µM]
COc1ccc(CNC(=O)CCc2c(C)nn(-c3ccc(N4CCCC4)nn3)c2C)cc1	-13.4%[46.1 µM]	·	-9.0%	·	-1.9%	·	3.6%	·
Nc1nc(CN2CCN(c3ccccn3)CC2)nc(Nc2ccc(Cl)cc2)n1	?	12.8%	?	-7.4%	-3.1%	-1.7%	-3.9%	-14.6%
Nc1c(S(=O)(=O)c2ccccc2)c2nc3ccccc3nc2n1/N=C/c1cccc(O)c1	-0.2%	-2.3%	-27.4%	-5.0%	1.1%	-91.1%	-23.4%	-15.8%
CCOC(=O)c1ccc(CN(Cc2ccc(C)cc2)S(=O)(=O)c2ccc(NC(C)=O)cc2)cc1	?	·	0.0%	·	-0.4%	·	?	·
CSC1=C(C#N)C(c2ccccc2)C(C(C)=O)=C(C)N1 (centres undefined)	·	-0.1%	4.7%	-2.3%	·	6.7%	·	·
O=C(CSc1ccc2ccccc2n1)c1ccccc1	1.2%	-5.9%	4.2%	3.0%	·	-1.9%	·	3.2%[46.1 µM]
COc1ccccc1C(=O)Nn1cnnc1	16.2%	5.5%	-14.4%	4.3%	·	-3.6%	·	-1.4%
CCN1CCCC1CNCc1ccc(OCc2ccc(Cl)nc2)c(OC)c1 (centres undefined)	1.3%	0.4%	29.3%	-8.1%	·	-1.5%	·	8.2%[46.1 µM]
O=S(=O)(c1ccccc1)c1nnn2c1nc(NCc1ccc(F)cc1)c1sccc12	18.6%[46.1 µM]	·	-15.8%	·	1.2%	·	1.6%	·
O=C(CSCc1c(Cl)cccc1Cl)NCc1ccccn1	5.1%	0.1%	17.4%	15.9%	·	-2.8%	·	29.1%
Cc1ccc(-c2nnc(N3CCN(C(=O)CSc4ncn[nH]4)CC3)c3ccccc23)cc1	-3.0%	7.6%	?	5.4%	1.1%	-19.2%	15.0%	-2.2%
CC(NC(=O)c1ccccc1)c1nnc(SCc2nc3ccccc3c(=O)[nH]2)n1C (centres undefined)	0.4%[46.1 µM]	0.6%	-15.6%	-11.7%	·	3.5%	·	?
Cc1cc(/C=N\NC(=O)COc2cccc3cccnc23)c(C)n1-c1ccccc1	-0.3%	2.8%	34.7%[activator]	0.0%	-4.8%	6.7%	-2.8%	?
CCc1nnc(NC(=O)CCn2cnc3ccccc3c2=O)s1	15.3%	0.4%	-17.6%	11.0%	·	-1.0%	·	2.4%[46.1 µM]
Cc1ccc(S(=O)(=O)CNC(=S)c2cccc(C)c2)cc1	7.2%	-3.0%	2.8%	12.4%	-3.8%	-12.1%	0.2%	4.2%
CC(=O)Nc1ccc(C=NNc2nnc(NN=Cc3ccc(NC(C)=O)cc3)c3ccccc23)cc1	1.58µM*	·	-9.1%	3.7%	·	·	·	?
CC(C)N1CCN(Cc2cc3ccccc3[nH]2)CC1CCO (centres undefined)	-33.7%	-5.7%	2.5%	-3.3%	·	-5.5%	·	1.5%
COc1ccc(-c2cc(C(=O)OCC(=O)NC3CC3)c3ccccc3n2)cc1OC	-12.9%[46.1 µM]	-13.6%	-2.6%	7.6%	·	·	·	-9.9%[46.1 µM]
COCCN1C(=O)c2cc(C(=O)Nc3ccc(OC)c(OC)c3)ccc2C1Nc1ccc(OC)c(OC)c1 (centres undefined)	6.1%[46.1 µM]	0.5%	-0.4%	3.2%	·	·	·	2.3%[46.1 µM]
COc1ccc(-c2ccc(/C=C(\NC(=O)c3ccccc3)C(=O)N3CCOCC3)o2)cc1	-19.2%	0.3%	-11.2%	-5.6%	·	-15.3%	·	?
CC(NC(=O)c1ccccc1)C(=O)OCC(=O)Nc1cccc(S(=O)(=O)N2CCCC2)c1 (centres undefined)	-1.7%	·	2.6%	10.9%	·	·	·	-30.3%
Clc1ccc(Oc2nc3ccccc3n3cccc23)cc1	-0.5%	3.8%	?	-8.0%	-11.2%	13.4%	?	-6.2%
CCn1c(NC(C)=O)nc2ccccc21	1.1%	-12.5%	-2.3%	-23.0%	-2.1%	5.5%	7.3%	-7.3%
Cc1c(NC(=O)CSc2nc(N)cc(N)n2)c(=O)n(-c2ccccc2)n1C	-0.3%	10.4%	-16.7%	0.0%	·	·	·	-8.9%
O=C(NC1CCCN(Cc2ccc(Cl)cc2)C1)c1ccccc1-c1ncc[nH]1 (centres undefined)	·	1.3%	-22.6%	-5.0%	·	2.5%	·	·
O=C(NCc1ccc(Cl)cc1)c1cnc2sc(N3CCCC3)nn2c1=O	-9.7%[46.1 µM]	·	-11.4%	·	-0.8%	·	9.4%	·
COc1ccccc1NC(=O)CS(=O)(=O)c1cccc2nsnc12	3.7%	-1.9%	1.4%	0.3%	-4.4%	0.4%	-7.8%	-0.6%
O=C(/C=C/c1ccc(Cl)cc1)Nc1ccccc1N1CCOCC1	-2.6%	-5.5%	-10.2%	-1.8%	-0.3%	-32.4%	?	1.6%
COC(=O)c1sccc1NC(=O)CNC(=O)c1ccccc1	-12.8%	-4.7%	20.9%	2.4%	·	·	·	-19.9%
Cc1noc(COc2ccccc2OCC(N)=O)n1	17.5%	·	-22.1%	1.4%	·	·	·	?
Cc1cc(C)n2nc(C(=O)NCc3cccc(C(F)(F)F)c3)nc2n1	0.5%	-0.8%	-8.6%	0.0%	·	·	·	?
CCN1CCN(C(=O)c2cnn(-c3ccc(F)cc3)c2-n2cccc2)CC1	23.5%[46.1 µM]	·	-17.8%	·	-0.7%	·	-12.4%	·
Cc1ccc(/C=C/c2nc3ccccc3c(=O)[nH]2)cc1	·	-0.6%	15.8µM*	-16.2%	·	-4.9%	·	·
COc1ccc(/C=C(\C#N)C(=O)OCC(=O)NC(C)c2ccccc2)cc1 (centres undefined)	?	14.8%	-21.1%	13.1%	-9.0%	-3.4%	?	?
COc1ccc(CCNC(=O)Cn2c(-c3cccs3)cc3cc(F)ccc32)cc1OC	6.5%[46.1 µM]	·	?	·	-3.1%	·	?	19.3%[46.1 µM]
Cc1ccc(C=Nc2ccccc2C(=O)Nc2ccccc2)cc1	2.2%	-6.7%	0.0%	1.9%	-3.8%	3.4%	-12.1%	?
COc1ccc2c(c1)[nH]c1c(=O)n(CCN3CCOCC3)cnc12	-15.0%	-0.2%	11.1%	-19.5%	·	-2.3%	·	1.9%[46.1 µM]
N#C/C(=C(/O)c1ccco1)c1nc2ccccc2[nH]1	-2.0%	4.1%	18.6%	4.8%	·	-14.2%	·	?
Cc1cc(NC(=O)Cn2nnc(-c3ccccc3N)n2)no1	1.0%	9.5%	-5.9%	-5.2%	-1.7%	2.5%	-7.1%	12.8%
C=CCn1c(-c2csc(-c3ccccc3)n2)n[nH]c1=S	-1.6%	·	8.5%	-0.5%	4.0%	?	?	4.7%
Cn1c(C(=O)NCc2ccccn2)cc2c(=O)n3ccccc3nc21	16.1%	-16.2%	·	1.0%	?	-10.0%	?	?
Cc1cccc(C)c1OCc1cc(C(=O)N(C)Cc2nc3ccccc3[nH]2)no1	-0.9%	-3.9%	-16.6%	-19.7%	·	-37.4%	·	?
CCN(C(=O)/C=C/c1cc(OC)c(OC)c(OC)c1)C1CCCCC1	·	-7.1%	-8.9%	2.6%	·	-13.1%	·	·
S=P(N1CCCCCC1)(N1CC1)N1CC1	?	·	-14.8%	9.8%	·	·	·	7.08µM*
O=P(Nc1ccccc1Cl)(c1ccccc1)c1nc2c(s1)CCCC2 (centres undefined)	?	-1.2%	9.6%	1.3%[3.69 µM]	1.6%	12.2%	4.8%	?
O=[N+]([O-])c1cccc(/C=C/c2ccncc2)c1	?	-5.6%	32.6%[activator]	-10.0%	·	-6.0%	·	?
Cc1cc(Nc2ccccc2)nc(N2CCOCC2)n1	-2.8%	-2.8%	17.4%	-11.0%	1.6%	-1.5%	-18.1%	?
Cc1ccc(CSc2nc3c(c(=O)[nH]2)C(c2cccc(F)c2F)CC(=O)N3)cc1 (centres undefined)	0.0%[46.1 µM]	·	-7.9%	·	5.1%	·	1.3%	-7.4%[46.1 µM]
COc1ccccc1C(=O)NCCC(=O)N(C)CC(=O)Nc1ccc(C)cc1	-7.0%	1.0%	1.8%	-13.7%	·	·	·	19.1%
O=C(COC(=O)c1cc(-c2ccccn2)nc2ccccc12)Nc1ncc(C(F)(F)F)cc1Cl	·	-0.4%	-16.7%	9.0%	·	5.5%	·	·
